VDR inhibitor = Inhibitors of the vitamin D receptor (VDR): qHTS; Vitamin D3 receptor (Homo sapiens), P11473; VDR-SRC2-3 peptide fluorescence polarization, 2 h; Potency, µM, inactives show max response, negative = inhibition, most hits filed as inhibitors; hit rate 0.93% among 400,000; active means well fitted inhibition curve with a large enough effect; inconclusive means small, poorly fitted or top-dose-only effect, or another doubt; inactive means no such curve, though single readings can be large or run the other way; further: series mostly up to about 120 µM
Target sequence (P11473 whole entry, looked up): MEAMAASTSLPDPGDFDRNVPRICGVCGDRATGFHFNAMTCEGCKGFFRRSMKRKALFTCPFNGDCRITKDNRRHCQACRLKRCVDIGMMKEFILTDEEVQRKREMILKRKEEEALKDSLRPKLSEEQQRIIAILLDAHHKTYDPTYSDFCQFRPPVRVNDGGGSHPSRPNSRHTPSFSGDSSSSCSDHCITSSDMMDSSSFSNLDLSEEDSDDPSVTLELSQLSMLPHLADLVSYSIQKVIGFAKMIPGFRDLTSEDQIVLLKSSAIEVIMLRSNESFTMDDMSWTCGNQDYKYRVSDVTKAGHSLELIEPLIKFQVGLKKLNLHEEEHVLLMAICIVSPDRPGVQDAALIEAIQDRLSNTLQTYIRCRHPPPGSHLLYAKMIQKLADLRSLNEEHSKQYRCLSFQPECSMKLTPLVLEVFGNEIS
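Inhibition of the VDR/SRC2-3 peptide interaction is quantified by fluorescence polarization. Compounds (23 nl, pintool) incubate with the reagents for 2 hours at ambient room temperature.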
Numbers without * were called inactive; ? = inconclusive; & = joins results of further samples. On the % scale 0 is the no-effect control and ±100 the full control effect; potency means the concentration at half of the fitted maximal effect. Only part of the results is shown; count on the stated rates, not on these rows.

SMILES | VDR inhibitor
O=C(O)CCCN1C(=O)/C(=C\c2ccc(-c3nc4ccccc4s3)o2)SC1=S | ?
COc1ccc(C(=O)Nc2nc3c(s2)CCCC3)cc1Cl | 6%
COc1cc(OC)c(NC2=CC(=O)C(=O)c3ccccc32)cc1Cl | -8%
COc1ccc(S(=O)(=O)NCc2ccco2)cc1-c1nnc2c3ccccc3c(C)nn12 | -8%
CC1(C)CC(=O)C2=C(C1)N1C(=C(C#N)C2c2ccc(Cl)cc2)N=C(N)c2ccccc21 (configuration not stated) | 6%
CCCn1c(=S)[nH]c2cc(C(=O)N3CCc4ccccc4C3)ccc2c1=O | 3%
CCN(CC)S(=O)(=O)c1ccc2c(c1)nc(CN(C)C(=O)Nc1ccc(Cl)cc1)n2C | 11%
CC(C)(C)c1ccc(-c2noc(CCC(=O)NCC3CCCO3)n2)cc1 (configuration not stated) | 12%
O=C(Nc1ccc(-c2nc3ccccc3[nH]2)cc1)c1ccccc1NS(=O)(=O)c1ccc(F)cc1 | 11%
COc1ccc(OC)c2c1sc(=NC(=O)C1CCCCC1)n2C | -2%
CCOC(=O)[C@@H]1[C@H]2COc3ccccc3[C@H]2N2C(=O)N(c3cccc(F)c3)C(=O)[C@]12C | 3%
O=C(OCc1ccc(Cl)c(Cl)c1)c1cnccn1 | 10%
Cc1cccc(CNC(=O)c2sc3ncnc(N(C)C4CCCCC4)c3c2C)c1 | 6%
O=C(O)CCN1C(=O)/C(=C\c2ccncc2)SC1=S | -7%
Cc1ccc(Nc2nnc(SCC(=O)N(C)C3CCS(=O)(=O)C3)s2)cc1 (configuration not stated) | 0%
CCc1c(C#N)c(N)nc(SCC(=O)OCc2ccccc2)c1C#N | -1%
O=C(Cn1nnc2ccccc21)N/N=C\c1cccs1 | -10%
COc1cc2[nH]c(=S)n(NC(=O)c3ccccc3)c(=O)c2cc1OC | 2%
COc1ccc(S(=O)(=O)Nc2ccc3c(c2)OCCO3)cc1Cl | 14%
Cc1ccc(NC(=O)N(C2=NCC(C)S2)c2ccccc2)cc1 (configuration not stated) | -4%
Cc1cc(C)n2nc(S(=O)(=O)NCCc3ccccc3)nc2n1 | -14%
N#CC(C(=O)c1ccccc1Cl)=C1SCCCS1 | -2%
O=C(NCc1cccnc1)NC1CC(=O)N(c2ccc3c(c2)OCCO3)C1 (configuration not stated) | -3%
Oc1ccccc1/C=N/NC(=S)NC1CC2CCC1C2 (configuration not stated) | 12%
Cc1ccc(NC(=O)C2CC(=O)Nc3nncn32)cc1 (configuration not stated) | -14%

Continued, starting with the last six of the part before.
SMILES | VDR inhibitor
Cc1ccc(NC(=O)N(C2=NCC(C)S2)c2ccccc2)cc1 (configuration not stated) | -4%
Cc1cc(C)n2nc(S(=O)(=O)NCCc3ccccc3)nc2n1 | -14%
N#CC(C(=O)c1ccccc1Cl)=C1SCCCS1 | -2%
O=C(NCc1cccnc1)NC1CC(=O)N(c2ccc3c(c2)OCCO3)C1 (configuration not stated) | -3%
Oc1ccccc1/C=N/NC(=S)NC1CC2CCC1C2 (configuration not stated) | 12%
Cc1ccc(NC(=O)C2CC(=O)Nc3nncn32)cc1 (configuration not stated) | -14%
CC(C)NC(=O)N(C)C[C@H]1Oc2ccc(NC(=O)C3CC3)cc2C(=O)N([C@H](C)CO)C[C@@H]1C | -5%
CCCC(C(=O)NC(C)(C)CC)N(CC1CCCO1)C(=O)CNS(=O)(=O)c1ccc(F)cc1 (configuration not stated) | -12%
Cc1cc(N/N=C/c2ccc(Cl)cc2Cl)nc(NCc2ccccc2)n1 | -10%
CCCn1nnnc1NC(=O)c1cc(Br)ccc1OC | -21%
O=S(=O)(/N=C/c1ccccc1O)c1cccs1 | -12%
CCN1CCN(C(=S)Nc2ccc(C(C)=O)cc2)CC1 | -8%
COc1ccc(C(=O)COC(=O)C2CC3CCCC(C2)C3=O)cc1Br (configuration not stated) | -13%
CCn1nnnc1SCC(=O)N1c2ccccc2Sc2ccccc21 | -6%
COC(=O)CSc1nnc([C@H](Cc2ccccc2)NC(=O)OC(C)(C)C)o1 | 10%
COCCn1c(=O)[nH]c2cc(C(=O)Nc3nnc(C)s3)ccc21 | 6%
O=C(NCc1ccccc1)N1CCC(Cc2ccccc2)CC1 | -7%
COc1cccc(N(C(=O)c2snc(C(N)=O)c2N)C(C(=O)NCc2ccccc2)c2ccc(O)cc2)c1 (configuration not stated) | -7%
CSCCC(NC(=O)c1ccco1)C(=O)N1CCCCCCC1 (configuration not stated) | -17%
COCCN1CCN(C(=O)c2ccc3nc(Cc4ccc(OC)c(OC)c4)oc3c2)CC1 | 2%
O=c1c2ccccc2ncn1-c1cccc([N+](=O)[O-])c1 | 11%
O=C(CSc1nnc2ccccn12)Nc1ccc(S(=O)(=O)N2CCOCC2)cc1 | 5%
O=C(NCC1CCCO1)c1ccc(S(=O)(=O)Nc2ccccc2F)cc1 (configuration not stated) | -13%
COc1ccc(C)cc1Nc1n[n+](-c2ccccc2)c(-c2cc(OC)c(OC)cc2Br)s1 | 4%
O=C(Oc1ccc[nH]c1=O)c1cccc(Cl)c1 | -23%
COc1ccccc1CN=C1NC(=O)C(CC(=O)Nc2ccc(C(C)=O)cc2)S1 (configuration not stated) | -8%
Cc1ccc(CNC(=O)C(N=C2NS(=O)(=O)c3ccccc32)C(C)C)cc1 (configuration not stated) | -4%
CC(C)NC(=O)c1nn2c(C(F)(F)F)cc(-c3ccco3)nc2c1Cl | 10%
CCSc1nsc(NC(=O)Nc2ccc(F)cc2F)n1 | 15%
O=C(Nc1ccc2nc(SCCOc3ccccc3Cl)sc2c1)c1ccco1 | 5%
CCc1ccc(Nc2sc(C(=O)c3ccc(F)cc3)c(N)c2S(=O)(=O)c2ccccc2)cc1 | 3%
Additional structures:
SMILES | VDR inhibitor
Cc1cc2nnc(SC(C)C)n2c2ccccc12 | -3%
COC(=O)c1ccc(-n2c(C)cc(C(=O)COC(=O)C3=COCCO3)c2C)cc1 | 14%
CCn1ncc(Br)c1C(=O)Nc1cc(C)cc(C)c1 | 7%
Cc1cc(C)c(NC(=O)C2CCCN(S(=O)(=O)c3c(C)noc3/C=C/N(C)C)C2)c(C)c1 (configuration not stated) | 2%
Cc1ccc(C)c(OCCCC(=O)N2CCOCC2)c1 | -2%
CCOC(=O)C1=C(C)N=c2s/c(=C\c3ccc(O)c([N+](=O)[O-])c3)c(=O)n2C1c1ccccc1OC (configuration not stated) | -2%
O=C(N/N=C/c1c[nH]c2ccccc12)c1cc(-c2ccc(-c3ccccc3)cc2)n[nH]1 | -3%
CC(C)c1csc(CN2CCC(CO)(Cc3cccc(F)c3)CC2)n1 | -9%
Cc1ccc(OCC(=O)NCC(=O)OCc2cc(=O)n3nc(C(C)C)sc3n2)cc1 | 1%
CCC(=O)OC1(C)C(=O)C=C2C=C(CCCC(=O)OC)OC=C2C1=O (configuration not stated) | ?
Cc1cccc(-n2c(CNC(=O)c3cccc(F)c3)nnc2SCC(=O)Nc2ccccc2F)c1 | -2%
CCc1ccccc1OCC(=O)OCC(=O)N1CC(=O)Nc2ccccc21 | 1%
N#Cc1ccccc1N=Cc1ccc(Br)cc1 | -25%
Nc1nnc(-c2ccc(Cl)cc2)o1 | 0%
O=C(NC1CCCCC1)c1ccc(Br)o1 | 13%
COc1cc(N/N=C/c2ccc(N(C)C)cc2)ncn1 | -7%
CCCCOc1c(Br)cc(CNCCCN2CCOCC2)cc1OC | -18%
CCN(CC(=O)Nc1c(F)cccc1F)C(=O)c1cnccn1 | -25%
CCCCNCCOCCOc1ccc(C)cc1[N+](=O)[O-] | -2%
CCN1C(=O)[C@H]2[C@H]3CN=C(SCC(=O)c4ccccc4)N3[C@@](CC)(C(=O)OC)[C@H]2C1=O | -22%
CCOc1ccc2oc(C(=O)N(CC)CC(=O)Nc3ccc(NC(C)=O)cc3)c(C)c2c1 | -29%
Cc1ccc(S(=O)(=O)NC(=O)c2cc(C)n(-c3ccccc3)c2C)cc1 | -13%
COc1cc(NC(=S)NC(C)(C)C)c(OC)cc1Cl | -8%
N#Cc1ccc(C(=O)N2CCC3CC2c2cc(-c4ccc(F)cc4)ccc23)cc1 (configuration not stated) | -21%
COc1ccccc1C(=O)NCCC(=O)N1CCN(C(=O)c2ccco2)CC1 | -7%
(more compounds)
SMILES | VDR inhibitor
CN(C)/C=N/c1ncc(C(=O)OC(C)(C)C)s1 | -16%
CCCn1c(SCC(=O)c2ccc3c(c2)OCCO3)nc2c1c(=O)n(C)c(=O)n2C | 14%
COc1cc(CNC(C)c2ccccc2)cc(Br)c1OCc1ccc(F)cc1 (configuration not stated) | -9%
O=C(CSc1nnc2ccccn12)NNC(=O)c1ccc(Cl)cc1 | 4%
CC(C)(C)NC(=O)CSc1nnc(-c2ccccc2)c(-c2ccccc2)n1 | -23%
CCOC(=O)N1CCN(c2nc(-c3ccco3)cc(C(F)(F)F)n2)CC1 | -4%
O=C1NC[C@@H](Cc2cccc3ccccc23)N(CCCCC2CCCCC2)C1=O | -19%
CN(C)S(=O)(=O)c1ccc(C(=O)Nc2ccccc2OC(F)(F)C(F)F)cc1 | 1%
COc1ccc(Cc2nc3ccc(C(=O)N4CCOCC4)cc3o2)cc1 | -19%
O=C(Nc1nnc(-c2ccc3c(c2)CCCC3)o1)C1COc2ccccc2O1 (configuration not stated) | -8%
CCC(C)NC(=O)Cn1cccc1C(=O)c1ccccc1 (configuration not stated) | 12%
COc1ccc(NC(=O)CN(C)C(C)C(=O)NC(=O)NC2CCCCC2)cc1 (configuration not stated) | 3%
Cc1cccc2c3c([nH]c12)CCN(C)C3 | -3%
COC(=O)Cc1[nH]n(-c2nc3ccccc3s2)c(=O)c1C(C)=Nc1ccc(Cl)cc1 | 4%
CCCCNC(=S)N/N=C/C1=CCC2CC1C2(C)C (configuration not stated) | -27%
Cc1ccc[n+](C(C)C(=O)c2ccc(-c3ccccc3)cc2)c1 (configuration not stated) | 6%
CCN(C(=O)CSc1nnc(-c2ccncc2)n1Cc1ccccc1)C1CCS(=O)(=O)C1 (configuration not stated) | 0%
CCN(C(=O)COC(=O)/C=C/c1cnc2ccccc2n1)c1ccccc1 | -8%
CN1C(=O)Cc2cc(S(=O)(=O)CCC(=O)Nc3ccc(F)c(Cl)c3)ccc21 | 1%
CCCC(=O)Nc1ccc(-c2nc3cc(C)c(C)cc3o2)cc1 | -3%
Cc1c(Cl)cccc1NC(=O)NCc1ccncc1 | 21%
Cc1ccc(-c2ccc(=O)n(Cc3cccc(Br)c3)n2)cc1 | 5%
Cc1csc(NC(=O)c2cc(C)oc2C)n1 | 7%
COc1ccccc1CC(NC(C)=O)C(=O)NC1CCN(C(=O)Nc2cccc(F)c2)CC1 (configuration not stated) | -4%
CCOc1cc(CNC(C)(C)CO)cc(Br)c1OCc1ccc(Cl)cc1Cl | -2%
Following part
SMILES | VDR inhibitor
CCN(CCCc1ccccc1)CCCc1ccccc1 | -10%&8%
COc1cc(OC)c(Nc2nc3ccccc3c3nncn23)cc1Cl | 4%
C=CCOc1ccc(Br)cc1/C=C1/SC(=Nc2ccc(C(=O)O)cc2)NC1=O | -15%
CC(C)(C)OC(=O)N1CCC(c2c(C(=O)N3CCN(Cc4ccccc4)CC3)cnn2-c2cccc(Cl)c2)CC1 | 5%
O=C(COC(=O)/C=C/c1ccccc1[N+](=O)[O-])NCC(F)(F)F | 0%
CC(C)N(C(=O)CSc1cn(CC(=O)N2CCCCCC2)c2ccccc12)C(C)C | 9%
CCNc1nc(N)nc(Oc2ccc(OCCOc3ccc(Cl)cc3Cl)nn2)n1 | -6%
CCOc1ccc(CCNC(=O)CCn2c(=O)c3cccn3c3ccc(F)cc32)cc1OCC | 5%
CC(C)COc1ccc(CNC(=S)NCc2ccccc2)cc1 | -4%
Cc1ccc(C)c(S(=O)(=O)N2CCN(C(=O)CCNC(=O)c3ccc(Br)cc3)CC2)c1 | 4%
O=C(Nc1ccccc1C(=O)N/N=C/c1ccc(F)cc1)c1ccccc1Br | -1%
CC1CCN(CCCNC(=O)c2ccc3c(Cl)c4c(nc3c2)CCCC4)CC1 | 18%
O=C(c1ccc(S(=O)(=O)c2ccccc2Cl)c([N+](=O)[O-])c1)N1CCCCCC1 | -9%
Cc1ccc(C(=O)NC2CCN(C(=O)Nc3ccccc3)CC2)cc1 | -10%
CN(C)Cc1ccccc1-c1nccc(N(C)Cc2ccco2)n1 | -1%
CCc1nc2ccccc2c(C(=O)OCC(=O)NCCCN2CCCC2=O)c1C | -6%
CCc1ccc(NC(=O)C/C(C)=N/NC(=O)COc2ccccc2C)cc1 | -15%
C[C@H](CO)N1C[C@H](C)[C@@H](CN(C)Cc2ccc(-c3ccccc3)cc2)Oc2ccc(NC(=O)Cn3cnnn3)cc2C1=O | 7%
CC(=O)N1N=C(c2cccs2)CC1c1cccs1 (configuration not stated) | 20%
COc1ccc(-c2nnc(SC(C)C(=O)Nc3nccs3)n2Cc2ccccc2)cc1OC (configuration not stated) | 1%
O=C(c1cccc(S(=O)(=O)Nc2ccc(F)cc2)c1)N1CCC1 | -10%
COc1cc2c(cc1OC)CN(C(=O)c1cc(C3CC3)nn1-c1ccccc1)CC2 | -5%
O=c1oc2cc(OCCO)ccc2c2c1CCCC2 | -9%
CCOc1ccc(C(=O)Nc2nnc(S(=O)(=O)N(CC)c3ccccc3C)s2)cc1 | 3%
C=C(C)Cn1c(SCC(=O)O)nc2c1c(=O)[nH]c(=O)n2C | 2%
CN(Cc1cnccn1)Cc1nc(Cc2ccccc2Cl)no1 | 5%

Arranged by count of non-hydrogen atoms (highest first): some entries from above.
SMILES | VDR inhibitor
COc1cc2c(cc1OC)CN(C(=O)c1cc(C3CC3)nn1-c1ccccc1)CC2 | -5%
CCNc1nc(N)nc(Oc2ccc(OCCOc3ccc(Cl)cc3Cl)nn2)n1 | -6%
CN(Cc1cnccn1)Cc1nc(Cc2ccccc2Cl)no1 | 5%
CCN(CCCc1ccccc1)CCCc1ccccc1 | -10%&8%
